Source: PubChem
Anaer choline gr – growth inhibitors of anaerobic choline-fed gram-negatives, minimal medium, absorbance | Gram-negative bacterium anaerobic choline minimal medium; hits give low values; many inactives read as strong as hits in the columns shown | calls only | 0.2% of 55,000 active;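 active means growth z-score on choline under -2 at 7 or 20 h with little or no fall on glycerol, limits in tiers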;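 further: stock transfer was 300 nL into about 50 µL; the organism is E. coli; final concentration not given here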
Anaer choline gr early – further read-out of Anaer choline gr, marked with its call; z-score; measured here: choline growth z-score, timepoint 1;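 score of optical density at 7 h as mean of two plates; lower means less growth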
* hit, by the source's call; i = inactive; & = joins results of further samples. These rows are one share of the data; rates above refer to the full screens.

SMILES | Anaer choline gr | Anaer choline gr early
CCOC(=O)c1c(C)c(C(=O)Nc2ccc(OC)cc2)c(C)n1CC | i | -1.2
CCCCN(C)c1ccc(NS(=O)(=O)c2ccc(Br)cc2)c(C(=O)O)c1 | i | 1.1
COc1ccc(NC(=O)c2cc3cc(OC)ccc3n2C)cc1 | i | -0.1
CCCCN1CCn2c(nc3ccccc32)C1 | i | -0.77
Cc1nc(N(C)C)cc(N2CCN(S(=O)(=O)c3ccc(Br)cc3)CC2)n1 | i | 1
CCCOc1ccc(-c2nn3c(=O)c(NC(=O)c4ccc(C)cc4)cnc3o2)cc1 | i | 0.87
COc1ccc(OC)c(NC(=O)Nc2c(-c3cccnc3)[nH]c3ccccc23)c1 | i | -0.07
Cn1nc(C(=O)NCc2ccc(Cl)cc2)c2c1CCN(C(=O)C1CC1)C2 | i | -1.6
Cc1ccnc(NC(c2ccccn2)c2cc(C)sc2NC(=O)c2ccccc2)c1 (stereo not given) | i | -0.33
COc1ccccc1NC(=O)CSc1nc2ccccc2c(=O)n1CC1COc2ccccc2O1 (stereo not given) | i | 1.2
CCc1ccc(OC(C)C(=O)Nc2nonc2-c2ccc(OC)c(C)c2)cc1 (stereo not given) | i | -0.08
Cc1nnc(-c2coc(S(=O)(=O)N3CCCCC3C)c2)o1 (stereo not given) | i | 0.36
CCC(=O)Nc1cccc(-c2noc(C3CCCN(C(=O)c4ccc(F)c(F)c4)C3)n2)c1 (stereo not given) | i | -1.5
CCOC(=O)C1CCN([C@H]2CS(=O)(=O)C[C@@H]2S(=O)(=O)c2ccc(Cl)cc2)CC1 | i | -0.64
CCC(C)(C)NS(=O)(=O)c1cc(-c2nc(C)cs2)n(C)c1C | i | 0.1
COc1ccc(C2CC(=O)Nc3c2cnn3-c2nc3ccccc3s2)cc1OC1CCCC1 (stereo not given) | i | 0.22
Cc1csc(-c2cc(S(=O)(=O)NCCCN3CCC(C)CC3)c(C)s2)n1 | i | -1.4
CCOc1ccc(S(=O)(=O)N2CCCC(C)(C(=O)NCc3cccc(OC)c3)C2)cc1 (stereo not given) | i | 0.37
COc1ccccc1NC(=O)Cn1cc(S(=O)(=O)Cc2ccccc2)c2ccccc21 | i | 0.11
CCCc1cc(C2CCCN2Cc2cn[nH]c2-c2ccc(OC)c(OC)c2)no1 (stereo not given) | i | 1.1
CN(C(=O)c1ccc(-c2cc(N3CCCCC3)ncn2)cc1)C1CCCCC1 | i | 0.74
CCC(C)NC(=O)Cc1ccc(NC(=O)N2CCCCc3ccccc32)cc1 (stereo not given) | i | 0.74
Cc1ccccc1-c1csc(Cc2nc(-c3ccc(Cl)cc3)no2)n1 | i | 0.79
Cc1nc(SCC(=O)Nc2nccs2)c2c(=O)n(C)c(=O)n(C)c2n1 | i | 0.31
Cc1ccc(S(=O)(=O)N(CC(=O)N2CCN(c3ccccc3)CC2)c2ccccc2F)cc1 | i | 0.85

The list goes on.
SMILES | Anaer choline gr | Anaer choline gr early
COc1ccc(-c2noc(-c3cccc(OCC(=O)N4CCCC4)c3)n2)cc1 | i | 0.01
CC(=O)Nc1cc(C(=O)Nc2cccc(-c3noc(C)n3)c2)ccc1C | i | -0.77
Cc1cccc(OCC(=O)N2CCCC(C)(C(=O)NCc3ccccc3C)C2)c1 (stereo not given) | i | -1.8
O=C(Cn1cnc2onc(-c3cccc(F)c3)c2c1=O)NCc1ccc2c(c1)OCO2 | i | -0.1
O=C(NCc1ccc2c(c1)OCO2)c1ccc2c(=O)nc3c(-c4cccc(F)c4)n[nH]n3c2c1 | i | 0
CCOC(=O)c1c(NC(=O)NCc2cccn2Cc2ccccc2)sc2c1CCCC2 | i | 1.8
O=C1CCCN1CCCN(CC(=O)N1CCNCC1)S(=O)(=O)c1ccccc1 | i | -0.51
O=C(NC1CCCC1)c1ccc(CN2CC(=O)N3CSCC3C2=O)cc1 (stereo not given) | i | 0.54
COCCNC1=NCCNC12CCN(S(=O)(=O)c1ccc(Cl)cc1)CC2 | i | -0.28
c1ccc(CC2CCN(Cc3nnc(-c4ccccc4)o3)CC2)cc1 | i | 1.1
O=C(O)c1cnn2c(-c3ccccc3)ccnc12 | i | -1.4
C=CCn1c(=O)c2ccc(C(=O)NCC(C)C)cc2n2c(=O)n(CC(N)=O)nc12 | i | -0.93
CCOC(=O)c1c(C)c(-c2ccccc2)n(CC(=O)N2CCC(C)CC2)c1C | i | 1.1
CCSCC1COC(c2cccn2Cc2ccccc2Br)=N1 (stereo not given) | i | 0.81
CCCOC(=O)c1sc2nc3c(cc2c1N)CN(Cc1ccccc1)CC3 | i | -0.32
Cc1nc(-c2cc(S(=O)(=O)Nc3cc(F)cc(F)c3)c(C)s2)cs1 | i | -0.49
COC(=O)c1cc(C(=O)Nc2ccc(Cl)cc2)c(=O)[nH]c1C | i | -0.07
CCN(CC)S(=O)(=O)c1ccc2nc(SC(C)C(=O)N3CCc4ccccc43)cc(C)c2c1 (stereo not given) | i | 1.8
CCn1c(CN(c2ccc(F)cc2)S(C)(=O)=O)nnc1SCC(=O)c1cn(CC)c2ccccc12 | i | 0.32
O=C(Nc1cccc(F)c1)c1nnc(C(=O)N2CCC(C(=O)NCc3ccc(F)cc3)CC2)s1 | i | 0.67
COc1cccc(CN=C2Nc3cc(C)c(C)cc3NC23CCCCC3C)c1 (stereo not given) | i | -0.39
Cc1sc2cc(C(=O)NCCN3CCOCC3)[nH]c2c1CN1CCCCC1 | i | 0.9
Cc1ccc2c(c1)C(Cc1sccc1C)C(=O)N2 (stereo not given) | i | -0.18
CC(=O)NCCc1nc2cc(NC(=O)COc3cc(C)ccc3C(C)C)ccc2n1C | i | 0.98
Cn1nc(COCc2ccccc2)c2c1CCN(S(=O)(=O)c1ccc(C3CCCCC3)cc1)C2 | i | 0.96

Random excerpt: 2 records from the list.
SMILES | Anaer choline gr | Anaer choline gr early
O=C(Nc1cccc(F)c1)c1nnc(C(=O)N2CCC(C(=O)NCc3ccc(F)cc3)CC2)s1 | i | 0.67
O=C1CCCN1CCCN(CC(=O)N1CCNCC1)S(=O)(=O)c1ccccc1 | i | -0.51

Returning to the listing, starting 5 compounds before the break.
SMILES | Anaer choline gr | Anaer choline gr early
COc1cccc(CN=C2Nc3cc(C)c(C)cc3NC23CCCCC3C)c1 (stereo not given) | i | -0.39
Cc1sc2cc(C(=O)NCCN3CCOCC3)[nH]c2c1CN1CCCCC1 | i | 0.9
Cc1ccc2c(c1)C(Cc1sccc1C)C(=O)N2 (stereo not given) | i | -0.18
CC(=O)NCCc1nc2cc(NC(=O)COc3cc(C)ccc3C(C)C)ccc2n1C | i | 0.98
Cn1nc(COCc2ccccc2)c2c1CCN(S(=O)(=O)c1ccc(C3CCCCC3)cc1)C2 | i | 0.96
O=S(=O)(NCc1nc2cccnc2n1C1CCCCC1)c1cccc2nsnc12 | i | -1.6
COc1ccc(N2CC(c3nnc(NC(=O)CCc4ccccc4)o3)CC2=O)cc1 (stereo not given) | i | -1
O=C(NCCCN1CCOCC1)c1cc(-c2cccnc2)nc2ccccc12 | i | -0.36
CCn1ccc2cc(S(=O)(=O)N3CCCN(C(=O)Nc4ccc(C)c(C)c4)CC3)ccc21 | i | -0.19
COc1ccc(S(=O)(=O)N2CCN(c3ccccc3OC)CC2)cc1C | i | 0.2
O=C(c1cnc2ccccc2c1Nc1ccc(Cl)cc1)N1CCOCC1 | i | -0.71
CCCCNC(=O)c1sc(-n2nc(C)cc2C)nc1C | i | 0.32
COC(=O)c1c(NC(=O)CSc2nnc3ccc4ccccc4n23)sc2c1CCC(C)C2 (stereo not given) | i | 0.07
Cc1ccc(NC(=O)Cn2c(=O)c3cc(Cl)ccc3n3nncc23)cc1 | i | 0.03
CCc1ccc(-c2ccc(-n3nc(C)c(S(=O)(=O)NC4CC4)c3C)nn2)cc1 | i | 0.17
CCCCCCN(CCCCCC)C(=O)Cc1c(-c2ccc(Cl)cc2)[nH]c2ccc(Cl)cc12 | i | 0.85
O=C(NC1CCN(Cc2ccccc2)CC1)c1cc(-c2ccccc2)c(N2CCOCC2)s1 | i | -1.4
CCN(CC)c1nc(NCC(=O)O)nc(NCC(=O)O)n1 | i | 0.61
O=C(NC1CCCC1)C1CCCN(C(=O)c2ccc(NS(=O)(=O)c3ccccc3)cc2)C1 (stereo not given) | i | 0.84
Cc1ccc2c(c1)c1c(c(=O)n(-c3cccc(Cl)c3)c(=O)n1C)n2C | i | 0.83
Nc1c(C(=O)c2ccccc2)oc2ccccc12 | i | -1.4
Brc1ccc(-c2nc(-c3ccn4cnnc4c3)no2)cc1 | i | 0.37
O=C(CSc1ccccc1)N1CC(OCc2ccc(Cl)cc2)C1 | i | -0.27
Cn1nc(COCc2ccc(F)cc2Cl)c2c1CCN(C(=O)NC(C)(C)C)C2 | i | -0.64
COc1ccc(Cl)cc1S(=O)(=O)Nc1ccc2nnc(C)n2n1 | i | 0.15
COC(=O)c1ccc(NS(=O)(=O)c2cc(F)ccc2CN2C(=O)c3cccnc3C2=O)cc1 | i | -0.64
Cc1nc2c3ccccc3n3c(CCCC(=O)NCc4ccccc4Cl)nnc3n2n1 | i | -0.05
O=C(CS(=O)(=O)c1cccc2nsnc12)Nc1cccnc1 | i | -2.4
COc1cc(NC(=O)C2CCC(=O)N2S(=O)(=O)c2ccccc2)cc(OC)c1 (stereo not given) | i | 0.38
COc1ccc(NC(=O)C2CCC(=O)N2S(=O)(=O)c2ccccc2)cc1OC (stereo not given) | i | 0.95

By substructure: the compounds so far containing a furan ring, fused or not.
SMILES | Anaer choline gr | Anaer choline gr early
Cc1nnc(-c2coc(S(=O)(=O)N3CCCCC3C)c2)o1 (stereo not given) | i | 0.36
Nc1c(C(=O)c2ccccc2)oc2ccccc12 | i | -1.4

Further structures:
SMILES | Anaer choline gr | Anaer choline gr early
O=C(COc1ccccc1)N1CCC2(CC1)Nc1cc(F)ccc1-n1cccc12 | i | -0.56
Cc1ccc(-c2nnc(SCC(=O)N3CCC(C)CC3)o2)cc1 | i | -0.05
Cc1nn(-c2nc3ccccc3[nH]2)c2c1C(c1ccc(F)cc1F)CC(=O)N2 (stereo not given) | i | -0.25
Cc1cc(C)c2c(c1)c(C)cc1nnc(SCC(=O)Nc3c(C)n(C)n(-c4ccccc4)c3=O)n12 | i | 0.38
CCS(=O)(=O)NCCc1csc2nc(-c3cccc(F)c3)nn12 | i | -0.55
COc1cccc(N2CCN(C(=O)c3ccc(Cn4c(=O)c5cccn5c5cccnc54)cc3)CC2)c1 | i | 0.88
CCN1CCN(C2(CNC(=O)c3oc4ccccc4c3C)CCCCC2)CC1 | i | -0.84
CCOc1ccc(-c2nc(CSc3nc4ccccc4c(=O)n3C)c(C)o2)cc1 | i | -0.58
Fc1ccccc1CNc1nc(-c2nnc(-c3ccccc3)o2)nc2ccccc12 | i | -0.17
CC(=O)Oc1c(C)cccc1C(=O)O | i | 0.21
O=C(CCc1cn(-c2ccccc2)nc1-c1ccc2c(c1)OCO2)NC1CCCC1 | i | 0.91
Cc1ccc(NS(=O)(=O)c2c(C)nc3sc4ccccc4n3c2=O)c(Cl)c1 | i | 0.59
CCN(Cc1ccccc1)c1ccc(C(=O)O)cc1NS(=O)(=O)c1ccc(OC)c(Cl)c1 | i | 0.63
Cc1noc(C(=O)N2CCCCC2)c1Cl | i | -0.62
CC1Oc2ccc(S(=O)(=O)N3CCN(C(=O)NC4CCCCC4)CC3)cc2NC1=O (stereo not given) | i | -0.89
CCc1nc(-c2ccc(-c3noc(C(C)Oc4ccccc4)n3)cc2)cs1 (stereo not given) | i | 1.3
CC(C[N+](C)(C)C)OC(N)=O (stereo not given) | i | 1.1&0.67&-0.36
CCS(=O)(=O)N1CCN(c2nc(C)nc3ccc(N4CCOCC4)cc23)CC1 | i | -0.13
O=C(Cn1nc(N2CCN(c3ccccc3)CC2)ccc1=O)NC1CCCCC1 | i | -0.41
CN1C(=O)c2cc3ccccc3n2CC1(C)C(=O)NCC(=O)NCc1ccccn1 (stereo not given) | i | -0.39
O=C(Nc1ccc(Cl)cc1)c1ccc(NC(=O)N2CCCCc3ccccc32)cc1 | i | 1
Cc1cc(OCC(=O)c2c(C)n(C)c3ccccc23)nc2c1c(C)nn2-c1ccccc1 | i | 0.29
Cc1cn2c(=O)cc(COc3ccccc3C)nc2s1 | i | 0.34
O=C1CSC(c2cn(-c3ccccc3)nc2-c2ccc(Br)cc2)N1Cc1ccccc1 (stereo not given) | i | -0.74
Cc1ccc(-c2nc(C3CCN(C(=O)c4cccc(Br)c4)CC3)no2)cc1 | i | 0.49

(continued)
SMILES | Anaer choline gr | Anaer choline gr early
c1ccc(N2CCN(c3ccc4nnc(CCc5nc(-c6ccncc6)no5)n4n3)CC2)nc1 | i | -0.16
CCCCC[C@H](O)/C=C/[C@H]1[C@@H](O)CC(=O)[C@@H]1CCCCCCC(=O)O | i | 0.3
CCc1onc(C)c1C1CCCN1C(=O)c1cc(C(C)C)no1 (stereo not given) | i | -0.49
Cc1ccsc1C1CCCCCN1S(=O)(=O)c1ccc(Cl)s1 (stereo not given) | i | 3.1
Cc1ccc(C)c(CN2CCCN(Cc3c(F)cccc3Cl)S2(=O)=O)c1 | i | 1.5
CN(CCCNC(=O)COCc1cc(-c2ccc3c(c2)OCO3)on1)C1CCCCC1 | i | -1
CCOc1ccccc1NC(=O)N1Cc2c(sc3c2CCN(C)C3)-n2cccc2C1C (stereo not given) | i | -0.17
Cc1cc2c(cc1S(=O)(=O)N1CCCC(C(=O)NCCC3=CCCCC3)C1)OCC(=O)N2 (stereo not given) | i | 1.2
O=C(NCCc1cscn1)[C@H]1CSCN1C(=O)c1ccccc1Br | i | 0.64

Five compounds from above, sorted by molar mass, smallest number first:
SMILES | Anaer choline gr | Anaer choline gr early
Cn1nc(C(=O)NCc2ccc(Cl)cc2)c2c1CCN(C(=O)C1CC1)C2 | i | -1.6
Cc1ccsc1C1CCCCCN1S(=O)(=O)c1ccc(Cl)s1 (stereo not given) | i | 3.1
CCn1ccc2cc(S(=O)(=O)N3CCCN(C(=O)Nc4ccc(C)c(C)c4)CC3)ccc21 | i | -0.19
CCN(Cc1ccccc1)c1ccc(C(=O)O)cc1NS(=O)(=O)c1ccc(OC)c(Cl)c1 | i | 0.63
Cc1cc(C)c2c(c1)c(C)cc1nnc(SCC(=O)Nc3c(C)n(C)n(-c4ccccc4)c3=O)n12 | i | 0.38
